D2 potentiator – Beta-Arrestin HTS for Positive Allosteric Modulators of the Human D2 Dopamine Receptor: Potentiators; potentiation, % (test concentration not listed); DiscoveRx D2 beta-arrestin cells, luminescence, 90 min; 100% = 57 uM dopamine signal; 360,000 compounds, 0.23% hits; AID 624464, 2012; active = potentiation of 50% or more; inconclusive = 30% to 50%; inactive = 30% or less;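 further: compound concentration not given in the record; tested on top of an EC20 dose of dopamine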
Target sequence (P14416 whole entry, looked up): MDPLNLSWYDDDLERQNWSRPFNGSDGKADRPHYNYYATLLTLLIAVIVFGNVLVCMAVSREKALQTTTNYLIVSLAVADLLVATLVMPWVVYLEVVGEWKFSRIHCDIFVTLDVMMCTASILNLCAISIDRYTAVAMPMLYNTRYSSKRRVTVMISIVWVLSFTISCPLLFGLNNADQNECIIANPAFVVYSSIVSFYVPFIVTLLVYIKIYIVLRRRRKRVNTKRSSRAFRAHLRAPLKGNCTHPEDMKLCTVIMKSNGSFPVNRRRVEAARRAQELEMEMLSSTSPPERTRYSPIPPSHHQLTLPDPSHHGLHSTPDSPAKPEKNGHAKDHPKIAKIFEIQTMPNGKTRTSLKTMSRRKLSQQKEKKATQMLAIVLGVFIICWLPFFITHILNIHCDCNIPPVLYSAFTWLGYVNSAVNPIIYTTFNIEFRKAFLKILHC
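D2 cells co-treated with compound plus 50 nM dopamine (EC20) for 90 min at 37 deg C to detect potentiation. Beta-arrestin recruitment was read as enzyme-fragment luminescence after 1 h at ambient temperature. Full response was set by 57 uM dopamine.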
ClpP mod – qHTS Assay for Activators of ClpP; purified B. subtilis ClpP, FRET peptide cleavage, 20 min; 340,000 compounds, 1.9% hits; Potency, µM (titrated, usually from 57.5 µM), inactives show at the top dose activity change, negative = active; AID 651965, 2013; active = well fitted falling curve with a large enough effect; inconclusive = small, poorly fitted or top-dose-only effect; inactive = no such curve, though single readings can be large or run the other way; further: potency means the concentration at half of the fitted maximal effect; the source files actives as falling curves though it sought activators and does not explain the sign; nearly all actives have a fitted effect of over 65% in size; many hits overshoot -100%
Target sequence (P80244 whole entry, looked up): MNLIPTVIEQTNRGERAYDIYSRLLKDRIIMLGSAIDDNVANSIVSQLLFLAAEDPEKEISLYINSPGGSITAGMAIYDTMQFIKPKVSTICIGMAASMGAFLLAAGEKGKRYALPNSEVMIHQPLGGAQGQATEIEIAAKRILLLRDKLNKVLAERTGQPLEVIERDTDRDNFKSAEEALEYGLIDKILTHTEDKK
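FRET quenching reversal measured ClpP activation: 10 microg/mL B. subtilis ClpP at pH 8 with the FRET-FV decapeptide, read at 430 nm after 320 nm excitation. The 20-min minus 0-min signal was scaled between DMSO/no-enzyme wells and ADEP (5.8 microM final).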
Starred values were filed as active, the others as inactive.

Values run as follows: ClpP mod | D2 potentiator
- Cn1nc(C(C)(C)C)cc1NC(=O)C1(C)CCN1C(=O)CCc1ccccc1 (centres undefined)
→ -1.6% | -14.2
- COC(=O)c1ccc(C(=O)N2CCCC(C)(C(=O)NS(=O)(=O)C3CC3)C2)cc1 (centres undefined)
→ 1.2% | -0.9
- CN1C(=O)CON=C1c1cccc2ccccc12
→ 0.1% | -5.9
- Cc1ccsc1C(=O)N1CCC1(C)C(=O)Nc1cccc(C#N)c1 (centres undefined)
→ -0.7% | -1.8
- CC(C)c1ccc(NC(=O)Nc2nc(C(N)c3ccccc3)cs2)cc1 (centres undefined)
→ -3.3% | -8.7
- CC1(C(=O)NS(=O)(=O)Cc2ccccc2)CCN1C(=O)CCc1ccccc1 (centres undefined)
→ 0.9% | -7.7
- CCOC(=O)N(C)c1c(CC)nc2c(OCC(=O)C(C)(C)C)cccn12
→ 0.3% | -7.9
- CC(=O)Nc1ccc(CN(C)c2c(C)nc3ccc(C(=O)N4CCN(C(=O)c5ccco5)CC4)cn23)cc1
→ -2.0% | 1.3
- COc1ccc(CC(N)c2csc(NC(=O)Nc3ccc(C(C)C)cc3)n2)cc1 (centres undefined)
→ -0.5% | -7.1
- CCCC(=O)N1CCCC(c2cc(C(=O)NCc3ccc(F)cc3)no2)C1 (centres undefined)
→ -1.5% | -2.7
- COc1ccc(S(=O)(=O)NC(=O)C2(C)CCN2C(=O)CC2CCCCC2)cc1OC (centres undefined)
→ -1.6% | -2.6
- CC(C)CNC(=O)C1(C)CCCN1C(=O)c1ccc2ccccc2n1 (centres undefined)
→ 1.4% | -10.9
- CC1=C(C(=O)N(C(C)C)C(C)C)CC(CC(=O)NC2CCCCC2)C(=O)N1Cc1ccc(F)cc1 (centres undefined)
→ 0.0% | 2.9
- CCc1nc2c(OCCOc3ccc(F)cc3)cccn2c1N(C)C(=O)c1ccco1
→ -0.4% | -2.8
- O=C(Nc1ccc(F)c(Cl)c1)c1ccc2nc([C@@H]3O[C@H](CO)[C@H](O)[C@H](O)[C@H]3O)[nH]c2c1
→ -5.6% | 5.5
- CCOC(=O)C1=CCC(C(C)(C)C)N(S(=O)(=O)c2ccc(C)cc2)C1 (centres undefined)
→ -1.3% | -2.7
- Cc1cccc(C)c1C(O)c1ncc(-c2cccc(F)c2)[nH]1 (centres undefined)
→ -1.3% | -1.9
- CN(C)CCN1CCN(C2CN(C3CCCC3)S(=O)(=O)C2)CC1 (centres undefined)
→ -0.3% | -3.2
- Cc1cccc(C)c1C(O)c1ncc(-c2cccc(C(F)(F)F)c2)[nH]1 (centres undefined)
→ -2.8% | -11.1
- O=C(c1ccccc1)c1nn(-c2ccccc2)c(=O)cc1-c1ccccc1
→ 0.5% | -1.9

The list continues:
Values run as follows: ClpP mod | D2 potentiator
- COCCNC(=O)C1(C)CCCN(Cc2ccc(-c3ccccc3)o2)C1 (centres undefined)
→ 0.1% | -7.1
- O=C(Nc1ccccc1F)c1ccc2sc([C@H]3C[C@H](O)[C@@H](CO)O3)nc2c1
→ 1.3% | -4.9
- CC(C)(C)Cc1c(-c2ccc(C#N)cc2)nc2c(Cl)cc(C(F)(F)F)cn12
→ -6.0% | -6.0
- CC1(C(=O)Nc2cccc(NS(C)(=O)=O)c2)Cc2c(-c3cccc(C(N)=O)c3)ccnc2O1 (centres undefined)
→ -1.6% | -22.1
- Cc1c(C(=O)NCc2cccc([N+](=O)[O-])c2)sc(=O)n1Cc1ccc(F)cc1
→ 1.4% | 0.3
- CC1(C(=O)NCc2ccc(F)c(F)c2)Cc2c(-c3cccc(C(N)=O)c3)ccnc2O1 (centres undefined)
→ -5.4% | 2.6
- COc1cccc(NC(=O)C2(C)CCN2Cc2ccc(OC(C)C)cc2)c1 (centres undefined)
→ 0.5% | -5.4
- Cn1ccc2c(N(Cc3ccccc3)Cc3ccccc3)cc3c(c21)C1CCC3C1 (centres undefined)
→ -4.1% | -3.6
- CC1(C(=O)NS(=O)(=O)c2ccc(Br)cc2)CCN1C(=O)C1(c2ccccc2)CC1 (centres undefined)
→ -2.3% | 3.0
- COC(=O)C1CCN(C2CN(Cc3ccc([N+](=O)[O-])cc3)S(=O)(=O)C2)CC1 (centres undefined)
→ 1.7% | -6.9
- CC1(C(=O)NS(=O)(=O)c2ccccc2Cl)CCN1C(=O)C1CC1 (centres undefined)
→ -0.5% | -15.0
- CC(C)c1ccc(NC(=O)c2ccc(-c3ccnn3C)c3ccoc23)cc1
→ -7.2% | -8.4
- CCc1nc2ccc(C(=O)Nc3ccc(NC(C)=O)cc3)cn2c1N(C)C(=O)Cc1ccccc1
→ -4.5% | -16.3
- CCOC(=O)C1(C)CCCCN1C(=O)c1cccs1 (centres undefined)
→ 0.8% | -14.0
- CN1CCN(C(=O)c2cccc3c(-c4ccc(F)c(F)c4)coc23)CC1
→ 1.8% | -14.0
- Cc1ccc([C@@H]2CC(=O)[C@@H]3CN(S(=O)(=O)c4ccc(C)cc4)[C@H](c4ccccc4)C[C@@H]3N2S(=O)(=O)c2ccc(C)cc2)cc1
→ -0.7% | -3.7
- COc1ccc(C(C)(O)c2nc(-c3ccc(S(C)(=O)=O)cc3)cs2)cc1 (centres undefined)
→ 0.5% | -0.2
- CS(=O)(=O)Nc1ccccc1-c1cccc2nccn12
→ 5.0% | 0.3
- O=C(Nc1ccc(Cl)cc1)c1ccc2sc([C@@H]3O[C@H](CO)[C@H](O)[C@H](O)[C@H]3O)nc2c1
→ 1.7% | -4.4
- COc1ccc(NC(=O)C2Cc3c(-c4cccc(NC(C)=O)c4)ccnc3O2)cc1OC (centres undefined)
→ -10.8% | -15.6

New compounds follow
Values run as follows: ClpP mod | D2 potentiator
- COC(=O)c1cc(=O)nc(NN=Cc2ccc(OC)cc2)s1
→ 1.3% | -1.5
- Cc1cccc(NC(=O)CNC(=O)[C@H]2O[C@@H](n3ccc(N)nc3=O)[C@H](O)[C@@H]2O)c1C
→ 0.8% | -7.2
- CC1(C)OCC(CNC(=O)c2[nH]c(C(F)(F)F)nc2-c2ccccc2)O1 (centres undefined)
→ -11.0% | -2.5
- COCCNc1nc(-c2ccccc2F)c2sc(-c3ccccc3)cc2n1
→ 31.6µM* | -12.7
- Clc1cccc(-c2cccc3nccn23)c1
→ 4.4% | -20.4
- CC1(C(=O)NCC2CC2)Cc2c(-c3cccc(C(N)=O)c3)ccnc2O1 (centres undefined)
→ -5.1% | 5.2
- CCCN1CCC(C(=O)NC(c2ccc(F)cc2)c2ncccc2C)CC1 (centres undefined)
→ -0.5% | -10.0
- COc1ccc(Cc2c(-c3cccc(Br)c3)nc3c(C)cc(Br)cn23)c(C)c1
→ -9.6% | -0.5
- COc1ccc(Cl)cc1-c1cc(C(=O)Nc2ccccc2)[nH]n1
→ -0.6% | -11.9
- CCCS(=O)(=O)NC(=O)C1(C)CCN(C(=O)c2ccc3c(c2)OCO3)C1 (centres undefined)
→ -1.0% | 5.2
- CC1(C(=O)NC2CCN(Cc3ccccc3)CC2)CCN1Cc1cc2ccccc2o1 (centres undefined)
→ 0.0% | -15.1
- CCC(=O)N1CCCC1(C)C(=O)Nc1ccc2c(c1)CCN2C(C)=O (centres undefined)
→ -1.3% | -3.1
- Cc1[nH]c(=O)sc1C(=O)NCc1ccc([N+](=O)[O-])cc1
→ 0.3% | -5.2
- O=C(NCc1ccc(F)cc1)c1cc(C2CCCCN2S(=O)(=O)c2cccc3cccnc23)on1 (centres undefined)
→ -2.6% | -4.9
- OC[C@@H]1CN(Cc2cccc3ccccc23)C[C@H](n2cnc3c(NCc4ccco4)ncnc32)O1
→ -6.1% | 18.4
- Clc1ccc2nc(-c3ccccc3)c(Cc3ccsc3)n2c1
→ -24.1% | -5.1
- CSc1ccc(Cn2c(C)c(C(=O)NCc3cccc(C(F)(F)F)c3)sc2=O)cc1
→ 0.7% | -1.8
- CCNC(=O)C1(C)CCCN1C(=O)c1cnc2ccccc2n1 (centres undefined)
→ 9.7% | -1.3
- COc1ccc(C=C2Cc3ccccc3C2=O)cc1
→ -25.2% | -4.2
- CCOC(=O)C1CCCN(C(=O)c2cccc(OC(F)(F)F)c2)CC1 (centres undefined)
→ -3.7% | -5.6

New compounds follow:
Values run as follows: ClpP mod | D2 potentiator
- CCOC1=C2CN(S(=O)(=O)c3ccc(C)cc3)[C@H](c3ccccc3)C[C@@H]2N(S(=O)(=O)c2ccc(C)cc2)[C@H](c2ccccc2)C1
→ 0.4% | -5.5
- CC(C)(C)c1ccc(CC(=O)N2CCC2(C)C(=O)Nc2ccc(F)cc2F)cc1 (centres undefined)
→ 2.0% | -3.7
- COc1cccc(C(O)c2nc(-c3ccc(F)c(Cl)c3)cs2)c1 (centres undefined)
→ -2.2% | -3.6
- Cn1nc(C(C)(C)C)cc1C(=O)N1CCCCC1c1cc(C(=O)NCc2ccccc2)no1 (centres undefined)
→ 1.6% | 0.5
- Cc1ccc(NC(=O)[C@@H]2O[C@H](CO)[C@H](O)[C@H](O)[C@H]2O)cc1C(F)(F)F
→ -0.5% | -18.2
- CCc1ccc2c(c1)NC(=O)C2(C)Cc1ccccc1C#N (centres undefined)
→ -1.3% | -0.9
- C=Cc1ccc(Cn2c(C)c(C(=O)NCc3cccc([N+](=O)[O-])c3)sc2=O)cc1
→ -1.8% | -8.0
- Cc1ccc(C)c(NC(=O)C2(C)CCN2C(=O)C(C)C)c1 (centres undefined)
→ -0.6% | 1.1
- CC1(C(=O)NCCC#N)CCN1C(=O)CC(c1ccccc1)c1ccccc1 (centres undefined)
→ 1.0% | 4.4
- CCNC(=O)C1CCCN(C(=O)c2ccc(F)c(Cl)c2)CC1 (centres undefined)
→ 0.6% | -2.6
- FC(F)(F)c1cccc(N2CCCCC2)c1
→ -1.2% | -4.3
- COCCNC(=O)C1(C)CCCN(C(=O)c2ccc(N(C)C)cc2)C1 (centres undefined)
→ -4.6% | -5.1
- CSc1ccc(CN2C(=O)C(C)Oc3c(C(C)=O)cccc32)cc1 (centres undefined)
→ 0.4% | -10.2
- CC(C)Oc1cc(F)ccc1-c1cc(C(=O)Nc2ccc(C(C)C)cc2)[nH]n1
→ -11.5% | -22.5
- O=C(NCc1ccccc1)c1cc(C2CCCCN2C(=O)c2ccc3c(c2)CCO3)on1 (centres undefined)
→ 0.7% | -5.9
- CCc1nc2c(OCc3cccc(Cl)c3)cccn2c1N(C)C(=O)c1ccc(OC)cc1
→ 0.2% | -4.8
- COCCNc1nc(Nc2ccc(C(=O)OC)cc2)c2sccc2n1
→ 3.6% | -11.2
- Cn1c(=O)c2cc(NC(=O)CCc3cccnc3)ccc2n1Cc1ccc(F)cc1
→ 4.2% | 1.4
- CC(=O)Nc1ccc(NC(=O)c2csc([C@H]3C[C@H](O)[C@@H](CO)O3)n2)cc1
→ -3.5% | 1.9
- OC(c1ccccc1)c1ncc(-c2cccc(OCc3ccccc3)c2)[nH]1 (centres undefined)
→ -2.7% | -1.0

Continued:
Values run as follows: ClpP mod | D2 potentiator
- COc1ccc(S(=O)(=O)NC(=O)C2(C)CCN2C(=O)C(C)(C)c2ccccc2)cc1 (centres undefined)
→ -1.2% | -2.2
- Oc1ccc(-c2cnc3c(Nc4cccc(OC(F)(F)C(F)F)c4)nccn23)cc1
→ 14.2% | -1.3
- CCc1nc2c(OCc3cccc(Cl)c3)cccn2c1N(C)C(=O)c1ccncc1
→ -2.0% | -2.5
- COCCN(CCOC)Cc1cc(=O)oc2cc(C)ccc12
→ -3.1% | -0.3
- COc1ccc(C(=O)N2CCC2(C)C(=O)NC(C)C)cc1OC (centres undefined)
→ -0.5% | -5.5
- COCCNc1nc(Nc2ccc(C#N)cc2)c2sccc2n1
→ 3.8% | -0.6
- COc1ccc(C(NC(=O)C2CCN(CCOc3ccc(Cl)cc3Cl)CC2)c2ccccc2C)cn1 (centres undefined)
→ -0.6% | -3.5
- O=C(CC[C@H]1O[C@@H](n2cnc3c(NC(=O)c4ccccc4)ncnc32)[C@H](O)[C@@H]1O)NCCCN1CCCC1=O
→ -0.3% | -2.0
- COc1cccc(-c2cnc(C(O)c3ccc(-c4ccccc4)cc3)[nH]2)c1 (centres undefined)
→ -9.2% | -3.7
- Cc1cc(C)nc(Nc2nc(C(N)Cc3ccc(F)cc3)cs2)n1 (centres undefined)
→ 4.6% | -10.6
- CN(C)c1ccc(C=C(C#N)C(=O)c2ccccc2)cc1Br
→ 1.0% | -1.1
- Cc1cccc(CNC(=O)c2sc(=O)n(Cc3c(C)cccc3C)c2C)c1
→ -5.8% | -7.3
- COc1cc(CNC(=O)c2cc(-c3cc(Cl)ccc3OC)n[nH]2)cc(OC)c1
→ -9.4% | -11.9

Compound profiles, as listed above. Screens in order: ClpP mod	D2 potentiator
Record of CC(C)(C)c1ccc(CC(=O)N2CCC2(C)C(=O)Nc2ccc(F)cc2F)cc1 (centres undefined) : 2.0%	-3.7
Record of O=C(Nc1ccccc1F)c1ccc2sc([C@H]3C[C@H](O)[C@@H](CO)O3)nc2c1 : 1.3%	-4.9
Record of CCNC(=O)C1(C)CCCN1C(=O)c1cnc2ccccc2n1 (centres undefined) : 9.7%	-1.3
Record of CC(=O)Nc1ccc(CN(C)c2c(C)nc3ccc(C(=O)N4CCN(C(=O)c5ccco5)CC4)cn23)cc1 : -2.0%	1.3

High-throughput results from PubChem BioAssay.

An excerpt (hit frequency here may not be typical).
